Compound activity (PubChem)
FGF22 binding: FGF22 (human) thermal shift binding; 1.5% of 340,000 active; AID 651658; calls only at 9.99 µM; recombinant FGF22 thermal shift, SYPRO orange fluorescence; percent of sucrose octasulfate shift, DMSO zero; Q9HCT0;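 active means melting point raised past a set limit in the mean and every replicate; three in four hits are not shown here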
Target sequence (Q9HCT0 whole entry, looked up): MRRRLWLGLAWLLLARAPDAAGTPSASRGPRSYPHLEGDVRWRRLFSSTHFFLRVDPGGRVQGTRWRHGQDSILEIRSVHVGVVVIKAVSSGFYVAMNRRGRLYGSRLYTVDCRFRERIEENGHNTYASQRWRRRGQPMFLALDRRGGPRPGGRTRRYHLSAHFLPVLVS
HNF4A DNA FP: change in binding of human HNF4 alpha to DNA; HNF4a-FITC DNA binding, fluorescence polarization, 1 h; activity change, % at 10 µM; 0.3% of 360,000 active; AID 1224865; in the data active means activity change above about 30%, passing the limit was not always enough;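 further: controls were the assay level and a saturating level of protein; the project sought stronger binding though the title names inhibitors; some compounds called inactive have numbers as strong as hits; positive values seem to mean higher polarization but the record does not say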
Target sequence (P41235 whole entry, looked up): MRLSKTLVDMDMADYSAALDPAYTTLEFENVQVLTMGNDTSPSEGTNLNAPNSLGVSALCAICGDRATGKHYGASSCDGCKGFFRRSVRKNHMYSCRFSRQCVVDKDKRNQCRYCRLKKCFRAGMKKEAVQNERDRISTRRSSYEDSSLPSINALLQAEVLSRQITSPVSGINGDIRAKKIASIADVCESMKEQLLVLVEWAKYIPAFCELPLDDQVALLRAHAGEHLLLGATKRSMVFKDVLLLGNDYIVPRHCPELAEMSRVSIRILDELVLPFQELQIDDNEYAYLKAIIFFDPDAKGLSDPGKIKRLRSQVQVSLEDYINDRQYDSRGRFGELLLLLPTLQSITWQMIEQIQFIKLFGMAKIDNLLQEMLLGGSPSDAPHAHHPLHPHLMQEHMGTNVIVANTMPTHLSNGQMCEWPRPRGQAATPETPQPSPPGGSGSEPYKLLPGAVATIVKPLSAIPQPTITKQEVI
B2AR ag: activates human beta-2 adrenergic receptor causing internalization | response, % (no concentration beside the values) | Am2.2-beta2AR cells, FAP receptor internalization, flow cytometry; reference of the scale not given here | 0.43% of 340,000 active | P07550 | AID 504454;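 active means response above a set limit, near 3 SD of response in nonfluorescent compounds, cut at about 42% in these data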;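 further: stock transfer was 100 nL into about 11 µL; a reference agonist was the positive control; negative values mostly stem from fluorescent compounds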
E coli growth: inhibitors of Escherichia coli growth; OD600, 23 h; active compounds read low; OD600 absorbance (no concentration beside the values); 0.21% of 330,000 active;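 active means OD600 absorbance below the run mean of sample wells minus 3.6 SD, in any replicate, cut at about 0.56 in these data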;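 further: stock transfer was 300 nL into about 60 µL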
ALR H2O2 inh: blocks human ALR sulfhydryl oxidase activity. P55789. purified ALR, DTT oxidation, H2O2 HRP-luminol luminescence. inhibition, % (no concentration beside the values). 3.8% of 290,000 active. AID 485317;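 active means mean and each replicate at 75% or more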;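 further: stock transfer was 7.5 nL into about 7.5 µL; 0% = neutral wells and 100% = wells with inactivated enzyme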
UCH37 DUB inh: inhibitors of human deubiquitinating enzyme UCH37; AID 588478; purified proteasome/UCH37, Ub-AMC cleavage fluorescence; inhibition, % (concentration not given with the values); 0.33% of 330,000 active;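 active means mean of two replicates above 20%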;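 further: 0% = compound-free wells with enzyme and 100% = wells lacking proteasome; stock transfer was 100 nL into about 20 µL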
Target sequence (Q9Y5K5 whole entry, looked up): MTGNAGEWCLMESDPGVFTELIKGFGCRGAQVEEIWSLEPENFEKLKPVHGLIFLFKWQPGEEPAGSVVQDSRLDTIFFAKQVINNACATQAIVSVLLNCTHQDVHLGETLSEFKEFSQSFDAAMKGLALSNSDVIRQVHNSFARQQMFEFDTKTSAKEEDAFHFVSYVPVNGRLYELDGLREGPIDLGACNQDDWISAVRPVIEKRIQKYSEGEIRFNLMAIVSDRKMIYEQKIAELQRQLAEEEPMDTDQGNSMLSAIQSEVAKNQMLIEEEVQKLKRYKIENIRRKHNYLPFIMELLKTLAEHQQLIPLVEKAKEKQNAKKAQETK
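system = Proteasome-associated human UCH37 deubiquitinase | amount = 0.15 nM proteasome as dispensed | medium = pH 7.4 Tris-HCl (50 mM) with ovalbumin, ATP-MgCl2, DTT | incubation = 30 min preincubation with enzyme, 25 min cleavage at room temperature | detection = AMC fluorescence 355/460 nm | read-out basis = percent inhibition | controls = no-proteasome and no-compound wells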
rRNA inh HTS: inhibits bacterial ribosomal RNA function over humanized ribosomes; E. coli WT GFP vs humanized-ribosome RFP mutants, fluorescence, 24 h; active compounds read low; DMSO median 0, no signal -100; GFP signal change (wild-type ribosome), % (no concentration beside the values); 1.6% of 350,000 active; AID 720706;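 active means significant combined selectivity score with lowered wild-type GFP, culture density cut under 30%, mutant RFP and density less affected; inactive means any of these conditions unmet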; further: one replicate is shown; some compounds called inactive have numbers as strong as hits
rRNA inh HTS OD600: recorded beside rRNA inh HTS, whose call it bears; OD600 change, %; measured here: OD600 growth;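 optical density of the mix in the first replicate; 0 = DMSO median and -100 = no signal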
rRNA inh HTS RFP: recorded beside rRNA inh HTS, whose call it bears; RFP signal change, %; measured here: RFP humanized mutant strains;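 first replicate; 0 = DMSO median and -100 = no signal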
Starred values were filed as active, the others as inactive; i = inactive; . = no result given; & = joins results of further samples. The list is partial; rates above refer to the full screens.

SMILES	FGF22 binding	HNF4A DNA FP	B2AR ag	E coli growth	ALR H2O2 inh	UCH37 DUB inh	rRNA inh HTS	rRNA inh HTS OD600	rRNA inh HTS RFP
Cc1ccc(C(=O)NC2=NCCS2)cc1Cl	.	0.1	-9	0.55	-2	-0.1	-14	-1	0.5
Cc1c(N2C(=O)CS/C2=N\N=C\c2ccc(Cl)cc2)c(=O)n(-c2ccccc2)n1C	.	2.8	-1	.	-1	.	.	.	.
CCOc1ccc2[nH]c(=O)c(CN(Cc3ccco3)C(=O)c3ccc(Br)cc3)cc2c1	.	-1.9	-8	0.78	.	-7.7	.	.	.
O=S(=O)(NNc1ccc(Cl)nn1)c1ccc(F)cc1	.	-1.7	11	0.69	-2	-22	.	.	.
Cc1ccc2nc(-c3ccc(NC(=S)NC(=O)CC(C)C)cc3)sc2c1	.	1.1	0	0.74	-3	0.5	.	.	.
CCOc1ccc2nc(N/C(N)=N/C(=S)Nc3ccc(C)c(C)c3)nc(C)c2c1	i	2.1	-6	0.67	-2	-3.3	5	-5	-3.1
O=C(O)C1C2C=CC(C2)C1C(=O)Nc1nccs1 (stereo not drawn)	.	-2.1	0	0.69	-31	3.1	.	.	.
Cn1c(NCc2ccccc2F)nc2cc(-c3ccsc3)sc2c1=O	i	-1.3	.	.	.	.	20	27	4.7
COc1ccc(-c2cc(C(=O)NC3CCCC3)no2)cc1	i	1.7	1	0.68	-7	2.9	.	.	.
CCOC(=O)c1sc(NC(=O)C2CCCCC2)nc1C	i	4.5	-4	0.68	3	2.7	-30*	-23*	4.1*
CC1CCN(C(=O)CSc2nnc(CNC(=O)c3ccc(F)cc3)o2)CC1	i	-1.8	-3	0.67	3	5.0	0	3	-0.9
O=S(=O)(c1cccc(Cn2nnc(-c3ccc(F)cc3)n2)c1)N1CCOCC1	i	-3.0	-1	0.73	9	1.0	-14	-25	-5.1
CCNc1nc(C)c2cc(Br)c(=O)n(CC)c2n1	.	-3.4	8	0.71	-2	i	10	9	2.1
O=C(N/N=C/c1ccccc1OC(=O)c1ccc2c(c1)OCO2)c1cccc(F)c1	.	-3.6	-4	.	-5	.	.	.	.
COc1ccc(N2CCc3c(C)nc4c(OC)cccc4c32)cc1	i	4.9	0	0.69	.	9.2	-8	-26	-18
COc1cc(/C=C(\C#N)c2nc3ccccc3[nH]2)cc(Br)c1OCc1ccccc1	i	-0.2	6	0.71	.	-120	7	1	3.5
COc1ccccc1CN1CC(C(=O)NCc2cccnc2)CC1=O (stereo not drawn)	.	0.8	1	0.69	0	1.9	.	.	.
COc1ccc(Cn2c(=S)[nH]c3ccccc3c2=O)cc1	i	-2.5	-3	0.66	2	0.1	8	6	-9.2
COc1ccc(NC(=O)c2ccc(OCC3CCCO3)cc2)cc1Cl (stereo not drawn)	i	2.2	6	0.7	.	0.4	3	2	-2.0
CCOc1ccc(OCC(=O)Nc2ccc(OC)cc2[N+](=O)[O-])cc1	i	-0.1	9	0.72	-8	1.3	5	5	0.5
CC1(C)CN(c2ccc(N3CC(C)(C)C3=O)cc2)C1=O	i	-2.1	2	0.68	-3	0.5	6	4	-0.6
O=C(NCc1ccc(Cl)cc1)C1CCN(S(=O)(=O)c2cc([N+](=O)[O-])ccc2Cl)CC1	i	-1.1	2	0.7	.	2.9	17	27	0.4
CC(=O)C1=C(C)NC(=O)NC1c1ccccc1OCC(=O)NCCc1ccccc1 (stereo not drawn)	.	-0.1	-5	0.67	-2	3.4	.	.	.
O=C(NCC1CCCO1)c1ccc(S(=O)(=O)N2CCCCC2)cc1 (stereo not drawn)	.	-0.7	11	0.76	0	1.5	.	.	.

Looked up by compound from above:
SMILES	FGF22 binding	HNF4A DNA FP	B2AR ag	E coli growth	ALR H2O2 inh	UCH37 DUB inh	rRNA inh HTS	rRNA inh HTS OD600	rRNA inh HTS RFP
CCOc1ccc(OCC(=O)Nc2ccc(OC)cc2[N+](=O)[O-])cc1	i	-0.1	9	0.72	-8	1.3	5	5	0.5
COc1ccc(Cn2c(=S)[nH]c3ccccc3c2=O)cc1	i	-2.5	-3	0.66	2	0.1	8	6	-9.2
COc1cc(/C=C(\C#N)c2nc3ccccc3[nH]2)cc(Br)c1OCc1ccccc1	i	-0.2	6	0.71	.	-120	7	1	3.5

Further structures
SMILES	FGF22 binding	HNF4A DNA FP	B2AR ag	E coli growth	ALR H2O2 inh	UCH37 DUB inh	rRNA inh HTS	rRNA inh HTS OD600	rRNA inh HTS RFP
CCOC(=O)c1cc2c(ccn2C)n1CC(=O)N(Cc1ccccc1)c1ccccc1	.	-4.9	23	.	3	-0.6	.	.	.
CN(c1cccc(NC(=O)Cc2ccccc2)c1)S(C)(=O)=O	.	2.0	-7	0.65	-1	3.1	.	.	.
Fc1ccc2nc(N3CCCCC3)sc2c1	.	-4.3	-1	0.67	-5	2.2	.	.	.
O=C(Nc1ccccc1Cl)c1cc(C2CCCN(C(=O)CCCc3ccccc3)C2)on1 (stereo not drawn)	i	1.9	.	.	.	.	-6	-8	1.5
N[C@@H](C(=O)N[C@@H]1C(=O)N2C(C(=O)O)=C(Cl)CS[C@H]12)c1ccccc1	i	-10	-2	.	-34	1.0	.	.	.
N#C/C(=C/c1ccc(O)cc1)C(=O)NCc1ccc(Cl)cc1	.	3.0	7	0.66	33	4.9	-7	-1	1.5
Cc1cc(F)ccc1N1CCC(N2CCN(C(C)C)C(CCO)C2)CC1 (stereo not drawn)	i	2.0	16	0.71	18	3.4	9	1	2.8
OC(C#CCN1CCCC1)(c1ccccc1)c1cccnc1 (stereo not drawn)	i	0.1	-1	0.69	-9	1.5	-6	6	-1.8
Cc1ccc(-n2c(O)c(C=Nc3cc(C)on3)c3ccccc3c2=O)c(C)c1	i	5.9	23	0.7	-22	5.9	-4	-2	5.7
O=C(O)c1ccc(N2CCCCC2)cc1O	i	1.7	1	0.68	28	-1.7	8	12	-2.2
O=C(CSCc1ccccc1)N/N=C/c1ccccc1OCc1ccccc1	i	-3.0	-6	.	-1	.	-27*	-16*	7.8*
CC(=O)c1ccccc1OCC(O)CNC1CCCC1 (stereo not drawn)	i	-3.4	-9	0.68	-1	4.5	14	12	4.1
CC(=O)c1cccc(NC(=S)NC(=O)CC(C)C)c1	.	3.5	-9	0.74	6	0.1	.	.	.
COC(=O)C1=C(N)N(c2ccc(F)cc2)C2=C(C(=O)CCC2)C1c1ccc2c(c1)OCO2 (stereo not drawn)	.	-7.4	-2	0.76	5	1.0	.	.	.
c1cnc2ccc3ncccc3c2c1	i	-6.7	-7	0.69	.	4.7	1	1	-4.0
Cc1ccc(S(=O)(=O)NCc2n[nH]c(=S)n2C)cc1	.	-0.7	-3	0.65	67	1.9	.	.	.
C[C@@]12CC(=O)NC1N(C(=O)c1cccc(C(F)(F)F)c1)C(c1ccccc1O)C2 (stereo partly drawn)	.	-3.0	4	0.7	9	0.1	.	.	.
CCSc1nnc(-c2cccnc2)n1-c1ccc(Cl)c(C)c1	i	-0.7	12	0.67	10	1.3	-11	-25	-2.7
Cc1cc(C)nc(SCC(=O)N/N=C/c2cccc([N+](=O)[O-])c2)n1	i	-1.0	-11	.	.	.	6	5	-9.3
COc1ccc(C)cc1NC(=O)CCc1ccc(S(=O)(=O)N2CCOCC2)cc1	i	0.9	7	0.67	-5	2.0	-2	3	0.9
Cc1cc(SCC(=O)c2cccs2)n2nc(C)c(-c3ccc(Cl)cc3)c2n1	i	3.0	3	0.71	54	-28	-31*	-1.7*	-8.8*
O=C1CCCC(O)=C1C=NCc1ccccc1	i	-2.2	-5	0.71	0	4.9	5	7	0.1
C[C@@H]1CN([C@H](C)CO)C(=O)CCCn2cc(nn2)CO[C@H]1CN(C)C(=O)Nc1cccc2ccccc12	i	4.9	.	.	.	.	-6&-1	-8&5	7.9&2.8
O=C(c1ccccc1)N1CCN(c2ccc([N+](=O)[O-])c(NCc3cccnc3)c2)CC1	i	1.8	-1	0.67	.	10	-8	-12	6.9
OC(CNCCc1ccccc1)COc1ccc(OCC(O)CNCCc2ccccc2)cc1 (stereo not drawn)	i	3.0	24	0.68	-8	5.3	-6	-7	11
Cc1ccc2c(c1)N(CC(=O)c1cccc(Cl)c1)C(=O)C(C)O2 (stereo not drawn)	.	-1.5	2	0.69	3	0.4	4	3	-0.8
COc1ccc(-c2cc(C(F)(F)F)nc(NCc3cccs3)n2)cc1	i	3.1	-3	0.69	-30	-12	3	4	-3.5
Cc1cc(OCC(=O)N(C(C)C)C(C)C)ccc1Cl	i	3.0	-1	0.7	-2	3.7	-7	-6	1.9
COc1ccc(NC(=O)COC(=O)CC2CCCC2)cc1	i	-2.1	1	0.68	-5	-0.9	13	9	8.3
O=C(NNS(=O)(=O)c1ccccc1)C(O)(c1ccccc1)c1ccccc1	.	0.4	-1	0.64	-1	2.0	.	.	.
Cc1cc(Br)ccc1SCC(=O)N1CCN(S(=O)(=O)c2ccccc2)CC1	i	-1.3	-6	0.72	-5	1.3	7	-20	-0.7
COCC(C)N=C1NN=C(c2ccc(NC(C)=O)cc2)CS1 (stereo not drawn)	i	0.2	0	0.69	98*	5.5	2	11	-1.5
CN(CC(=O)NCc1ccc(F)cc1)CC(=O)Nc1ccc(Cl)c(C(F)(F)F)c1	i	0.9	2	0.68	2	2.7	-69	-81	-29
O=C(O)CSc1nc(-c2cccs2)cc(C(F)(F)F)n1	i	2.4	1	0.64	-5	7.4	-12	-13	-2.8
C=CCOc1cccc(C2/C(=C(/O)c3ccc(F)cc3)C(=O)C(=O)N2CCN2CCOCC2)c1 (stereo not drawn)	.	3.6	-4	0.74	5	8.0	.	.	.
CN(C)CCn1ccc(O)c(Cc2ccc(Cl)cc2)c1=O	i	2.4	-5	0.66	3	-0.2	11	11	-1.3
O=C(CCNC(=O)C1CCN(S(=O)(=O)c2ccccc2)CC1)NCCc1cccc(F)c1	i	0.6	-5	0.7	-3	-2.3	0	1	2.9
CCCc1sc(N)nc1-c1ccc(Cl)cc1	i	3.2	24	0.66	37	3.0	-40	-51	-9.8
COc1ccc(/C=C/C(=O)N[C@H](C(=O)O)C(C)C)cc1	i	-2.0	-3	0.72	.	1.8	2	6	-0.9
O=C(Cc1ccccc1)N/N=C/c1cc2c(cc1Cl)OCO2	.	1.8	-7	.	-1	.	.	.	.
CCN(CC)CCCNC(=O)c1cc2c(=O)n(C)c3ccccc3c2n1C	i	0.4	2	0.75	-4	-8.5	1	10	1.4
COc1cc(NC(=O)c2cc3sccc3n2C)cc(OC)c1	.	1.2	-9	0.7	-7	1.2	.	.	.
O=C(O)C1C2C=CC3(CN(Cc4ccco4)C(=O)C13)O2 (stereo not drawn)	.	-20	-4	0.73	.	2.0	2	5	0.1
O=C(NCc1ccccc1Cl)C1CCC(=O)N(CCCN2CCCC2=O)C1 (stereo not drawn)	i	-1.4	-2	0.7	-6	-2.3	10	9	1.0
O=C(CCN1CCN(CCO)CC1)Nc1ccc(F)c(F)c1	.	2.3	-3	0.69	-7	4.5	.	.	.
COc1cc(C)ccc1OCCOCCOc1ccc([N+](=O)[O-])cc1	i	-3.7	3	0.7	1	2.6	.	.	.
C=CCOc1ccc(C[C@H](N)C(=O)NC[C@H]2O[C@@H](n3cc(C)c(=O)[nH]c3=O)C[C@@H]2O)cc1	i	-5.9	.	.	.	.	4	6	3.8
CCn1c(=O)c(C)nn2c3ccccc3nc12	.	0.5	-8	0.77	6	3.4	.	.	.
O=C(c1ccc(-c2cccc(C(F)(F)F)c2)o1)N1CCCC(C(F)(F)F)C1 (stereo not drawn)	i	3.0	3	0.68	-13	-0.6	-14	-31	0.2
O=C(Nc1nc2c(s1)C(=O)CCC2)c1ccccc1	.	1.8	-2	0.7	-2	4.3	.	.	.
